# From PubChem BioAssay
# PABP FP inh = PABP-poly(A) binding inhibition | P11940 | PABP-poly(A) RNA binding, fluorescence polarization | 290,000 compounds, 1% hits | inhibition, % at 35 µM;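 active means 50% or more with normal probe brightness, or confirmed in later tests; inconclusive means above 50% with abnormal brightness, or retests that disagree; inactive means below 50% or failed in later tests; about a fifth of its hits are not listed in these tables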;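 further: calls also rest on retests at 20 µM and on dose response follow-up; controls were probe without protein and protein plus probe with vehicle; some compounds called inactive have numbers as strong as hits; many hits fall short of the cut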
# Target sequence (P11940 whole entry, looked up): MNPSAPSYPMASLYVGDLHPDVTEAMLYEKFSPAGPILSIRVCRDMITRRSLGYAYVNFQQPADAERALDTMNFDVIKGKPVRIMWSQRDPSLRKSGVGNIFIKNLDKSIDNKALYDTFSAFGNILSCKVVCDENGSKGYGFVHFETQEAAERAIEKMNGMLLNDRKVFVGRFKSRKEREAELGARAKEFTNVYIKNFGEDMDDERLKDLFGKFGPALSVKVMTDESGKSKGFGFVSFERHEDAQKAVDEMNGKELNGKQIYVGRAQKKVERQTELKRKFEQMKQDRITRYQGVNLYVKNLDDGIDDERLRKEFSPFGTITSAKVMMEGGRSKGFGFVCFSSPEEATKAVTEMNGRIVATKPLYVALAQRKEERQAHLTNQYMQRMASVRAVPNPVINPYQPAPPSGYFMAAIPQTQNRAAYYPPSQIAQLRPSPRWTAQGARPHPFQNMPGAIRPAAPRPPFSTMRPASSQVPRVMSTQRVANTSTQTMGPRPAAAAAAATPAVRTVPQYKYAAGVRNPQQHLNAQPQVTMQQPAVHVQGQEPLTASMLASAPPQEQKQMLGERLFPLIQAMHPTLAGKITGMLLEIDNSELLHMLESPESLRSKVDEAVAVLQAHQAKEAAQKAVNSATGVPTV
# Rce1 inhib = blocks yeast Ras-converting enzyme | 290,000 compounds, 0.27% hits | yeast membranes, quenched prenylated peptide cleavage fluorescence | calls only | AID 2563 | Q03530;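 active means fall in fluorescence gain of 50% or more versus controls, with final raw signal at or below 3038400; inconclusive means same 50% fall but final raw signal above 3038400; inactive means fall in fluorescence gain under 50%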;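 further: plate controls were neutral control wells for no effect and wells lacking membranes for full effect; tested at 10 µM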
# Target sequence (Q03530 whole entry, looked up): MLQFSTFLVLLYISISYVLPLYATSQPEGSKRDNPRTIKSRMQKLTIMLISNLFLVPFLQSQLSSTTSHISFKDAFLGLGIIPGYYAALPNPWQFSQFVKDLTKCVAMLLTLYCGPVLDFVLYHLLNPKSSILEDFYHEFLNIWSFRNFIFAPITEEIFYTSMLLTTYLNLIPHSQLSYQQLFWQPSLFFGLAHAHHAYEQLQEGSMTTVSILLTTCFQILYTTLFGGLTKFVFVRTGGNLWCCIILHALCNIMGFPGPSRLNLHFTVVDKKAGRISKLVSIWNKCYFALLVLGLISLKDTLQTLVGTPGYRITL
# Yeast UUG start = alters start codon recognition fidelity in yeast; activity score, % at 18.7 µM; AID 602363; 350,000 compounds, 0.13% hits; S. cerevisiae UUG-firefly luciferase reporter, luminescence/redox ratio;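 active means replicate mean at a twofold rise or more, about +100% in these data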;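 further: firefly luciferase made from a UUG start codon reports start codon fidelity; reporter light over untreated wells divided by growth signal over untreated wells; some hits fall short of that in this replicate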
# Env fusion inh = inhibitors of HIV Env-mediated cell fusion. HeLa-JRFL Env/CEM21 cell fusion, luciferase. inhibition, % at 12.3 µM. 360,000 compounds, 1.1% hits;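 active means mean replicate inhibition score of at least 50 and every replicate individually at or above 50; inconclusive means only one of the two criteria met; inactive means mean below 50 and not all replicates reaching 50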;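 further: 0% = plate neutral controls and 100% = maraviroc near 300 nM; one replicate is shown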
# eIF4H inh = inhibitors of RNA binding by human eIF4H; Q15056; 290,000 compounds, 0.94% hits; eIF4H fluorescence polarization binding assay; inhibition, % at 35 µM;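 active means 50% or more with normal probe brightness, or confirmed in later tests; inconclusive means above 50% with abnormal brightness, or retests that disagree; inactive means below 50% or failed in later tests; about a fifth of its hits are not listed in these tables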;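 further: calls also rest on retests at 20 µM and on dose response follow-up; 0% = protein and probe with vehicle and 100% = probe without protein; strong numbers were not always called active; many hits fall short of the cut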
# CSC inhib = blocks cancer stem cells; cancer stem cell-like cells viability, luminescence; inhibition, % at 7.5 µM; 300,000 compounds, 1.1% hits;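 active means mean at 75% or more and at least half the replicates too; inconclusive means mean and replicates disagree; tested in HMLE shEcad cells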;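 further: 0% = median of negative and 100% = median of positive control wells; the first replicate is given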
# MT1-MMP act inh = blocks activation of human MT1-MMP. HT1080 RFP-PRO-GFP cells, GFP/RFP ratio fluorescence, overnight; percent of plate control window, DMSO zero. GFP/RFP ratio change, % at 20 µM. 360,000 compounds, 0.061% hits. AID 651647. P50281;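 active means GFP/RFP ratio change of at least 30% with cell ATP level not reduced by more than half and red fluorescence within 50% of control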; further: strong numbers were not always called active
#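 Assay system: HT1080 RFP-PRO-GFP cells | Dosing: 20 µM single dose, 1% DMSO | Incubation: Cells overnight before dosing, compound overnight, 37 °C, 5% CO2 | Evaluation: GFP/RFP fluorescence ratio | Control set: DMSO-only wells and HT1080 RFP-L50D-GFP cell wells as references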
# eIF4H inh retest = also measured in eIF4H inh; calls as there; inhibition, %; compound at 20 µM; confirmation average;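 mean of two retest wells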
# PABP FP inh retest = recorded beside PABP FP inh, whose call it bears; inhibition, %; compound at 20 µM; confirmation repeats;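 mean of two retest wells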
# MT1-MMP act inh RFP = also measured in MT1-MMP act inh; calls as there; RFP signal change, %; measured here: RFP expression control read;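 0 = vehicle wells; hits needed this value within 50% of zero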
# The depositor's hits bear a star; i = inactive; ? = inconclusive; . = not tested or not shown; & = joins results of further samples.
SMILES,PABP FP inh,Rce1 inhib,Yeast UUG start,Env fusion inh,eIF4H inh,CSC inhib,MT1-MMP act inh,MT1-MMP act inh RFP,others
CC1=C(C(=O)OCc2ccc3c(c2)OCO3)C(c2ccc(O)c([N+](=O)[O-])c2)NC(=O)N1 (configuration not stated),14,i,.,49,-1,.,-6,-13,
Cc1cc(N2CCOCC2)nc(N)n1,-5,i,.,-7,7,4,8,3,
CCCCNc1c2c(nc3c(-c4ccccc4)c(C)nn13)CCC2,-5,i,1,.,2,.,-7,-11,
O=C(NCc1cccnc1)c1noc2c1CCCC2,6,i,-16,.,4,.,2,2,
O=C(NC(Cc1ccccc1)C(=O)O)c1ccc(S(=O)(=O)N2CCOCC2)cc1 (configuration not stated),5,i,5,-23,-10,.,-3,-2,
COc1ccc(CNc2ncnc3sccc23)cc1,10,i,-3,9,4,2,-4,-27,
Cc1ccc(S(=O)(=O)N2CCN(C(=O)COC(=O)/C=C/c3ccccc3F)CC2)c(C)c1,.,.,-14,-7,.,.,3,4,
COc1ccc(-n2cc(CN3CCCC3)c(-c3cccc(F)c3)n2)cc1,-9,i,.,14,-5,1,1,1,
COc1ccc(N2CCN(C(=O)c3ccc(Oc4ccc(C(F)(F)F)cn4)cc3)CC2)cc1,-2,i,-10,31,12,24,0,-11,
COc1cc(C(=O)NNC(=O)c2ccc(S(=O)(=O)N3CCCCC3)cc2)cc(OC)c1OC,4,i,-11,3,-4,-5,0,-1,
Cc1ccc(CC(=O)O/N=C(\N)c2ccccn2)cc1,-2,i,-24,.,1,2,-3,0,
CC(=O)NC1CC2CCCC(C1)N2Cc1ccc(C)cc1 (configuration not stated),-5,i,-19,3,0,-15,2,-1,
COc1cc(C(=O)OCC(=O)NCCC2=CCCCC2)ccc1OCC(C)C,.,i,.,14,.,-3,-2,-1,
c1ccc(-c2[nH]ncc2CN2CCN(Cc3ccc4c(c3)OCO4)CC2)cc1,13,i,.,-3,-6,-4,-2,1,
Cc1cccc(NC(=O)c2cccc(S(=O)(=O)N(C)C3CCCCC3)c2)n1,.,.,-12,-5,.,.,0,-3,
Cc1nc(NC(=O)c2ccc(Br)s2)sc1C(=O)N(C)C,1,i,.,-176,-9,-4,2,-5,
O=C(/C=C/c1c(F)cccc1Cl)Nc1cccnc1,0,i,-21,-21,-9,.,-7,-6,
Cc1cc(C(=O)c2ccc(Cl)cc2)c(NC(=O)CCl)s1,7,i,.,11,1,9,-9,-8,
C=CCN=c1scc(-c2ccc(F)cc2)n1/N=C/c1ccccn1,-1,i,.,10,-6,33,1,-4,
Nc1nc(-c2ccccc2)nn1S(=O)(=O)c1ccccc1,4,i,-17,6,5,53,3,-2,
CCOC(=O)C1=C(O)C(=O)N(CCCn2ccnc2)C1c1ccc(OC)cc1 (configuration not stated),15,i,.,.,-5,10,.,.,
CCOC(=O)N1CCN(Cc2cn[nH]c2-c2ccc(-c3ccccc3)cc2)CC1,-2,i,.,-4,-7,5,-2,4,
CCCCn1c(N)c(N(CC(C)C)C(=O)C(C)SCc2nc3sc(C)c(C)c3c(=O)[nH]2)c(=O)[nH]c1=O (configuration not stated),.,.,-14,-15,.,-3,-6,1,
Cc1ccc(Cc2nnc(SCC(=O)Nc3c(C)cccc3C)[nH]c2=O)cc1,.,i,-2,.,.,-3,-4,4,
CC1(c2nnc(Cc3ccccc3)o2)CC(c2ccccc2Br)=NO1 (configuration not stated),.,i,-16,-7,.,2,-3,1,

# Continued:
SMILES,PABP FP inh,Rce1 inhib,Yeast UUG start,Env fusion inh,eIF4H inh,CSC inhib,MT1-MMP act inh,MT1-MMP act inh RFP,others
CN(C)CCCCOc1ccccc1F,-13,i,.,-2,2,0,0,-1,
COc1ccc(OC)c(NC(=O)CSc2nnc(N)s2)c1,-2,i,1,-84,-2,-8,-5,0,
Cc1cccc(CSC2=NN3CCCC(=O)N=C3S2)c1,1,i,-7,?,-5,4,0,0,
COc1ccccc1NC(=O)[C@H](COCc1ccccc1)NC(=O)OC(C)(C)C,3,i,8,-2,15,-14,-5,-7,
Cc1ccc(Nc2nnc(SCC(=O)NCCN3C(=O)CSC3=O)s2)cc1,-21,i,.,-57,-19,10,-1,3,
Cc1ccc(N(C(=O)c2csnn2)C(C(=O)NC2CCCCC2)c2cccnc2)c(C)c1 (configuration not stated),2,i,-29,11,0,-1,-4,0,
CCCc1nc(SCC(N)=O)[nH]c(=O)c1CC,0,i,-15,-28,-3,-7,-4,-3,
CN1C(C(=O)NCc2ccc(OC(F)(F)F)cc2)CC2Cn3c(nc4cc5ccccc5cc43)C21 (configuration not stated),-10,i,-15,17,4,6,0,-5,
Cc1ccc(NC(=O)COc2ccccc2C=O)cc1Cl,-7,i,.,6,-14,1,-1,-3,
COc1ccc(NC(=O)CN(c2ccc([N+](=O)[O-])cc2)S(=O)(=O)c2ccccc2)c(OC)c1,1,i,-20,19,-2,6,13,5,
CCc1sc(C(=O)Nc2ccc(F)cc2C)cc1C,-2,i,-15,-2,-5,-8,8,11,
COc1ccc(Cc2nnc(NC(=O)Nc3cccc(OC)c3)s2)cc1,-4,i,-12,6,3,1,3,1,
CN(CC(O)CN1CCOCC1)S(=O)(=O)O (configuration not stated),-5&-14,i,-2,-17&-15,?,-6&-4,2&1,3&0,
CCCCN(C)CCNC(=O)CCn1nc(-c2ccc(Cl)cc2)ccc1=O,12,i,-27,14,6,-8,5,6,
COC(C/C=C/C(=O)COCc1ccccc1)OC,-5,i,-21,7,0,.,-1,1,
Cc1ccc(N2C(=O)c3ccc(C(=O)O)cc3C2=O)c(C)c1,-8,i,.,-7,2,5,-3,0,
COc1cc(-c2noc(-c3ccccc3C(=O)NCc3ccco3)n2)cc(OC)c1OC,4,i,-10,.,-8,-4,18,-5,
CCOC(=O)c1c(NC(=O)CSc2n[nH]c(CNc3ccccc3)n2)sc(C)c1C,-8,.,-11,.,5,-6,-1,-3,
C[C@H](CO)N1C[C@H](C)[C@@H](CN(C)C(=O)Nc2ccc(C(F)(F)F)cc2)Oc2c(NS(=O)(=O)c3cn(C)cn3)cccc2C1=O,.,.,6&4,-8,.,-7,4,4,
COc1ccc(N2C(=O)CSC2c2cccc(F)c2)cc1 (configuration not stated),14,i,-12,15,12,.,-9,0,
Cc1ccsc1C(=O)N1CCC1(C)C(=O)NCc1cccc2ccccc12 (configuration not stated),.,.,2,13,.,.,2,3,
CC(NC(=O)C(C(=O)c1cccc([N+](=O)[O-])c1)n1cc(Cl)ccc1=O)c1ccccc1 (configuration not stated),-15,i,.,-7,2,-15,0,3,
Cc1ccc(S(=O)(=O)NCCC(=O)N2CCCC(C)C2)cc1 (configuration not stated),.,i,-9,-3,.,-2,2,0,
Cc1cc(C)cc(C(=O)/C=C2\NC(=O)CS2)c1,-3,i,11,.,4,4,4,2,
CN(CC(O)CN)CC(O)CN1CCCCC1 (configuration not stated),60,i,-18,.,13,-16,0,-1,eIF4H inh retest=3;PABP FP inh retest=44

# The list goes on, starting with the last 2 of the part before.
SMILES,PABP FP inh,Rce1 inhib,Yeast UUG start,Env fusion inh,eIF4H inh,CSC inhib,MT1-MMP act inh,MT1-MMP act inh RFP,others
Cc1cc(C)cc(C(=O)/C=C2\NC(=O)CS2)c1,-3,i,11,.,4,4,4,2,
CN(CC(O)CN)CC(O)CN1CCCCC1 (configuration not stated),60,i,-18,.,13,-16,0,-1,eIF4H inh retest=3;PABP FP inh retest=44
O=C(Nc1cnccn1)Nc1ccccc1Cl,-4,.,-4,-19,-7,-19,-1,-2,
CC1CCCN(c2ccc(C(=O)Nc3nnc(C4CC4)s3)cc2[N+](=O)[O-])C1 (configuration not stated),0,i,4,-3,-3,27,3,0,
O=C(O)Cc1sc(Nc2ccccc2)nc1-c1ccc(Cl)cc1,-11,i,.,-9,12,-4,-3,-2,
CCOC(=O)[C@H]1[C@H]2COc3ccc(OC)cc3[C@@H]2N2C(=O)[C@H](C)NC(=O)[C@@]12C,.,.,-5,-9,.,-18,1,5,
Cc1ccc(C(=O)Nc2ccc(S(=O)(=O)N3CCCC3)cc2)cc1,3,i,.,12,-3,.,0,-2,
Cc1ccc2nc(-c3ccc(O)cc3)oc2c1,-6,.,-63,-224,2,12,2,2,
Cn1cncc1C#Cc1ccc2cc(CCCO)oc(=O)c2c1,.,.,-3,-23,.,-7,6,-7,
CCCc1cc(=O)oc2cc3oc(C)c(C)c3cc12,8,i,-33,-67,-10,-10,-4,-3,
Cc1ccc(C(=O)Nc2scc(-c3ccccc3)c2C(=O)O)cc1,.,i,-16,1,.,18,2,-4,
Cc1cccc(NC(=S)NCCc2ccccn2)c1,2,.,-16,-5,-7,-2,-4,-4,
COc1ccc(C(CCNCc2ccc(N(C)C)cc2)c2ccccc2OC)cc1 (configuration not stated),-2,i,-3,?,-4,2,-3,-4,
COc1ccc(N(CC(=O)NC2CC3CCC2C3)S(=O)(=O)c2ccc(C)c([N+](=O)[O-])c2)cc1 (configuration not stated),5,i,4,4,-18,-1,-7,-7,
CC1(C)Cc2c(c(-c3ccco3)nc3n[nH]c(N)c23)CO1,-4,i,-10,.,-1,-3,2,0,

# Entries shown so far with an aryl methoxy group:
SMILES,PABP FP inh,Rce1 inhib,Yeast UUG start,Env fusion inh,eIF4H inh,CSC inhib,MT1-MMP act inh,MT1-MMP act inh RFP,others
COc1ccc(CNc2ncnc3sccc23)cc1,10,i,-3,9,4,2,-4,-27,
COc1ccc(-n2cc(CN3CCCC3)c(-c3cccc(F)c3)n2)cc1,-9,i,.,14,-5,1,1,1,
COc1ccc(N2CCN(C(=O)c3ccc(Oc4ccc(C(F)(F)F)cn4)cc3)CC2)cc1,-2,i,-10,31,12,24,0,-11,
COc1cc(C(=O)NNC(=O)c2ccc(S(=O)(=O)N3CCCCC3)cc2)cc(OC)c1OC,4,i,-11,3,-4,-5,0,-1,
COc1cc(C(=O)OCC(=O)NCCC2=CCCCC2)ccc1OCC(C)C,.,i,.,14,.,-3,-2,-1,
CCOC(=O)C1=C(O)C(=O)N(CCCn2ccnc2)C1c1ccc(OC)cc1 (configuration not stated),15,i,.,.,-5,10,.,.,
COc1ccc(OC)c(NC(=O)CSc2nnc(N)s2)c1,-2,i,1,-84,-2,-8,-5,0,
COc1ccccc1NC(=O)[C@H](COCc1ccccc1)NC(=O)OC(C)(C)C,3,i,8,-2,15,-14,-5,-7,
COc1ccc(NC(=O)CN(c2ccc([N+](=O)[O-])cc2)S(=O)(=O)c2ccccc2)c(OC)c1,1,i,-20,19,-2,6,13,5,
COc1ccc(Cc2nnc(NC(=O)Nc3cccc(OC)c3)s2)cc1,-4,i,-12,6,3,1,3,1,
COc1cc(-c2noc(-c3ccccc3C(=O)NCc3ccco3)n2)cc(OC)c1OC,4,i,-10,.,-8,-4,18,-5,
COc1ccc(N2C(=O)CSC2c2cccc(F)c2)cc1 (configuration not stated),14,i,-12,15,12,.,-9,0,
CCOC(=O)[C@H]1[C@H]2COc3ccc(OC)cc3[C@@H]2N2C(=O)[C@H](C)NC(=O)[C@@]12C,.,.,-5,-9,.,-18,1,5,
COc1ccc(C(CCNCc2ccc(N(C)C)cc2)c2ccccc2OC)cc1 (configuration not stated),-2,i,-3,?,-4,2,-3,-4,
COc1ccc(N(CC(=O)NC2CC3CCC2C3)S(=O)(=O)c2ccc(C)c([N+](=O)[O-])c2)cc1 (configuration not stated),5,i,4,4,-18,-1,-7,-7,

# A portion of the library (hit frequency here may not be typical).
